Screens as filed in PubChem.
HCMV UL50-53 inh – inhibitors of HCMV UL50-UL53 interaction, biochemical, HTRF; 190,000 compounds, 0.15% hits; normalized percent inhibition; inhibition, % (concentration not given with the values); AID 1918969, 2023;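 active = both replicates at 50% or more, plus weaker picks with an unusually low signal ratio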;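 note: stock transfer was 100 nL into about 20 µL; 0% = negative control wells and 100% = wells with untagged competitor protein; inactives centre near -12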
GIV-Gai inh – inhibitors of GIV peptide binding to Galpha-i3, primary screen, biochemical, fluorescence polarization, FITC-GIV GBA peptide, rat Galphai3. percent of control (FP), % (concentration not given with the values). Guanine nucleotide-binding protein G(i) subunit alpha-3 (Rattus norvegicus), P08753. 90 min; stronger effect = lower value; scaled: aluminum fluoride 0%, vehicle 100%. AID 1224905, 2016. 210,000 compounds, 0.42% hits;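 active = replicate mean at 85% of control or lower, very high polarization wells dropped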;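 note: wells of about 15 µL received 100 nL stock; the first replicate is given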
Target sequence (P08753 whole entry, looked up): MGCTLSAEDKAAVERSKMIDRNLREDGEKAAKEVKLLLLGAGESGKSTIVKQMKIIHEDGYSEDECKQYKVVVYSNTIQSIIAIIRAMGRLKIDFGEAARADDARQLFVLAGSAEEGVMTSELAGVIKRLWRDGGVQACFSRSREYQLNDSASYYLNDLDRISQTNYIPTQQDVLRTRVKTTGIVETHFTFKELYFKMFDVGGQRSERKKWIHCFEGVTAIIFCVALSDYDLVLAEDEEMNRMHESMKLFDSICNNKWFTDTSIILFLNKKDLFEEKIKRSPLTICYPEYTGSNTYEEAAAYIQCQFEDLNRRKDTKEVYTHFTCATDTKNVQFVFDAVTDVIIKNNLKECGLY
Sa growth 42C – S. aureus growth inhibition at 42 and 30 °C, primary screen, LtaS inhibitor project, RN4220, two temperatures; OD600, 20 h, 42 °C; stronger effect = lower value; relative growth, % (no concentration beside the values); 170,000 compounds, 0.53% hits; AID 720641, 2013;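 active = growth at 42 °C up to 50% and 20 or more points under that at 30 °C, or under 10% at both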;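 note: 300 nL library stock went into each well; scaled to the means of positive and negative controls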
Sa growth 42C second temp – second read-out of Sa growth 42C, no call of its own (marks repeat the call); relative growth, %; measured here: growth at 30 °C;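 optical density after 20 h as mean of two plates; 100% = untreated growth and lower means inhibition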
Active calls of the source: *; x = not tested or not shown. Not a hit list; overall some 0.82% were active at least once.

Molecule | HCMV UL50-53 inh | GIV-Gai inh | Sa growth 42C | Sa growth 42C second temp
CCn1cc(C(=O)NCCc2ccc(C)cc2)c(=O)c2cc(S(=O)(=O)N3CCc4ccccc4C3)ccc21 | -25.7 | 102.7 | 101.1 | 90.3
CC1(C)CC(=O)C2=C(C1)Nc1ccccc1NC2c1coc2c(Cl)cc(Cl)cc2c1=O (centres undefined) | -26.8 | 97.9 | x | x
Cc1noc(-c2ccc(N(C)Cc3ccccc3)c([N+](=O)[O-])c2)n1 | -53.0 | 102.0 | 86.4 | 81.8
O=C(NC1CC1)c1nn(-c2ccc(Cl)cc2)nc1CO | -9.5 | 102.8 | x | x
CCN(CC)Cc1c(O)ccc2oc(C)c(C(=O)NC3CCCC3)c12 | -17.5 | 105.0 | x | x
CCc1ccc(NC(=O)NCCCN2CCN(c3ccccc3)CC2)cc1 | x | 102.7 | 114.5 | 89.4
Cc1ccccc1Cn1cc(NC(=O)c2cc(-c3ccc4c(c3)OCO4)on2)cn1 | 3.7 | 102.4 | 91.6 | 94.0
O=C(O)c1ccc(C2Nc3ccccc3-c3nnc(SCc4ccc(Cl)cc4)nc3O2)cc1 (centres undefined) | -24.4 | 103.2 | 105.5 | 86.8
Fc1ccc(-c2cn3c(-c4ccccc4)c(-c4ccccc4)nc3[nH]2)cc1 | -7.4 | x | 105.9 | 47.5
CCC1(c2ccccc2)NC(=S)N(c2ccccc2)N1 (centres undefined) | -6.1 | x | 80.0 | 68.3

Three compounds from above, ordered by the number in GIV-Gai inh, rising.
SMILES	GIV-Gai inh	Sa growth 42C second temp
CCn1cc(C(=O)NCCc2ccc(C)cc2)c(=O)c2cc(S(=O)(=O)N3CCc4ccccc4C3)ccc21	102.7	90.3
O=C(NC1CC1)c1nn(-c2ccc(Cl)cc2)nc1CO	102.8	x
O=C(O)c1ccc(C2Nc3ccccc3-c3nnc(SCc4ccc(Cl)cc4)nc3O2)cc1 (centres undefined)	103.2	86.8

More structures follow.
Molecule | HCMV UL50-53 inh | GIV-Gai inh | Sa growth 42C | Sa growth 42C second temp
CCC(=O)N1CCc2cc(CNC(=O)Cc3ccc(F)cc3)ccc21 | x | 102.2 | 123.9 | 86.8
CC1CCCN(C(=O)c2cc(-c3ccco3)nc3ccccc23)C1 (centres undefined) | -9.4 | x | 79.5 | 85.0
O=C(NCc1csc(-c2cccs2)n1)C1CCC1 | -30.1 | 107.2 | 103.5 | 79.7
CCOC(=O)c1c(C)[nH]c(C(=O)N2CCC(CC(=O)N3CCN(c4ccccn4)CC3)CC2)c1C | -11.6 | 105.6 | x | x
CC1CN(C(=O)Nc2ccc(C(=O)NCc3ccc4c(c3)OCO4)cc2)c2ccccc2S1 (centres undefined) | 13.3 | 104.0 | x | x
N#CCC(=O)Nc1ccc2c(c1)OCO2 | 5.9 | x | 86.6 | 95.5
COc1ccccc1CNC(=O)C1CCN(c2nc3ccc(Cl)cc3[nH]2)CC1 | x | 105.0 | 73.6 | 30.8
COC(=O)c1c(/N=C/c2c(O)n(Cc3ccccc3)c(=O)[nH]c2=O)sc2c1CCCC2 | -13.7 | x | 92.4 | 89.3
CSc1sc(C(=O)Sc2ccccc2)cc1S(=O)(=O)C(C)C | -54.5 | 100.6 | 90.6 | 78.2
O=C(Cn1c(=O)n(Cc2ccco2)c(=O)c2ccccc21)Nc1cccc(Cl)c1 | 1.8 | 106.2 | 96.3 | 98.0
COC(=O)CNC(=O)c1cccnc1SC | -13.5 | 100.2 | 88.8 | 87.9
CN(C)S(=O)(=O)c1ccc(C(=O)OCC(=O)NCc2ccccc2)cc1 | 0.4 | x | 101.3 | 100.0
CC(=O)N(CCC(Cc1ccccc1)c1ccco1)C(=O)Cc1ccco1 (centres undefined) | -3.5 | 103.3 | 87.4 | 69.0
Cc1cccc2cc(CN(Cc3ccccc3)C(=O)c3ccccc3)c(=O)[nH]c12 | -10.9 | x | 80.1 | 79.9
CCOC(=O)c1cnc(Cc2ccccc2)[nH]c1=O | -0.7 | 105.3 | 94.3 | 90.5
CN(C)C(=O)CSc1nc(SCC(=O)N(C)C)n(-c2ccccc2)n1 | 0.3 | 102.7 | 110.5 | 103.5
CCNc1nc(NCC)n2c(SCC(=O)Nc3ccc(CC)cc3)nnc2n1 | -22.0 | 107.1 | 80.0 | 65.1
O=c1c2cc3ccccc3oc-2nn1-c1ccccc1 | -5.6 | 103.0 | 90.7 | 86.3
O=C1CCC(=O)c2oc3ccccc3c2N1 | -97.4 | 98.0 | 97.5 | 84.6
COc1ccc(NC(=O)c2cc3c(=O)oc4ccccc4c3n2C)cc1OC | -22.7 | 101.5 | x | x
C[N+](C)(CCOc1ccccc1)Cc1ccccc1 (tested in a mixture with another compound) | x | 95.8 | 83.4 | 73.1
Cc1cc(NC(=O)c2ccco2)sc1C | -21.2 | x | 139.8 | 80.2
Cc1cc(Oc2ccccc2)nc(Oc2ccc(OCC(N)=O)nn2)n1 | -10.4 | 94.9 | 100.5 | 97.0
O=C(Cn1ncc2c(=O)oc3ccccc3c21)NCCCN1CCCC1=O | 5.5 | 92.6 | x | x
CCCCNc1cc(C)nc(CCC)n1 | 2.4 | 99.3 | 97.1 | 96.5
COC(=O)c1ccc(NC(=S)N(C(C)C)C(C)C)cc1 | 5.1 | x | 75.9 | 91.7
Nc1ncnc2c1ncn2CCO | -14.9 | x | 84.9 | 89.2
Cc1[nH]c2ccccc2c1CN1CCC(Cc2ccccc2)CC1 | x | 102.7 | 113.5 | 79.9
CCN(c1ccccc1)S(=O)(=O)c1ccc2[nH]c3c(c2c1)CCCC3 | x | 96.1 | 110.2 | 91.0
O=C(N1CCOCC1)C1(c2ccc(Cl)cc2)CCCC1 | -5.9 | 99.4 | 103.2 | 90.3

Next records follow:
The line under a structure holds: HCMV UL50-53 inh, GIV-Gai inh, Sa growth 42C, Sa growth 42C second temp
COc1ccccc1-c1nc(C)c2c(C)c(C#N)sc2n1
  2.7, 101.9, 99.9, 87.9
COc1ccc(NC(=O)c2cnn(-c3ccc(C)c(C)c3)c2C2CCNCC2)cc1Cl
  x, 102.4, 101.7, 91.0
CCOc1ccc(NC(=O)CSc2oc(-c3ccccc3)nc2S(=O)(=O)c2ccc(Cl)cc2)cc1
  22.6, 111.6, 110.2, 120.5
COc1ccc(C2OCC(CO)(CO)CO2)cc1
  x, 100.9, 104.3, 89.0
O=c1nc(NCc2ccccc2)c2ccccc2[nH]1
  -2.5, 109.8, x, x
COC(=O)c1cc(=O)n2ccccc2c1C#N
  -56.0, 107.6, 97.9, 102.7
O=C(NCc1ccco1)C1C2C3CCC(C3)C12 (centres undefined)
  -2.5, 106.0, 121.0, 98.2
CCCCN1CCS(=O)(=O)c2c(Cl)c(N3CCOCC3)nc(Oc3ccc(F)cc3)c21
  -4.6, 104.0, x, x
CCc1cccc(NC(=O)CCCCCC2NC(=O)NC2C)c1 (centres undefined)
  1.7, 106.0, 89.8, 77.8
COc1ccc(N2CCN(c3ncnc4c3cnn4-c3ccc(F)cc3)CC2)cc1
  x, 105.5, 95.6, 94.5
CCOC(=O)c1[nH]c(C)c(C(=O)N2CCCC2)c1C
  x, 101.8, 102.6, 85.6
COc1ccc(NC(=O)OCC23COCN2COC3)cc1
  -12.8, x, 111.7, 90.8
Cc1ccc(-c2c(C(=O)NCc3ccc(F)cc3)oc(=O)c3ccccc23)cc1
  -16.7, 102.8, 91.5, 89.5
CN(Cc1ccccc1)S(=O)(=O)c1ccc2c(c1)CCN2C(=O)C1CC1
  x, 98.2, 92.2, 88.0
CCOCc1cn(CC(=O)c2ccc(CC)cc2)c(C)nc1=N
  -7.4, 98.7, 89.2, 83.8
O=C1C=CC(=O)N1c1cccc(Cl)c1
  -22.0, 104.1, 68.3, 53.1
O=S(=O)(c1ccc(Cl)cc1)N1CCCC(c2nc(-c3cccc(F)c3)no2)C1 (centres undefined)
  -0.4, 106.7, x, x
Cc1ccc(CN(C(=O)COc2ccc(Cl)c(C)c2)c2ccccn2)o1
  -17.8, 102.0, 95.6, 87.4
CCOC(=O)c1c(C)oc2c(Cl)cc(NS(=O)(=O)c3ccc(CC)cc3)cc12
  -19.7, 109.2, x, x
Cc1ccc(C)c(CSc2ccc3nnc(CCNS(=O)(=O)c4ccccc4)n3n2)c1
  x, 108.5, 108.5, 88.0
COc1ccccc1CNC(=O)C1CCN(Cc2cc3ccccc3n2Cc2cccc(C)c2)CC1
  x, 98.2, 123.5, 99.2
O=C(CSc1ccccc1)Nc1nc2ccc(Br)cc2s1
  -31.7, x, 106.2, 85.4
O=C(CSc1ccc(-c2ccccn2)nn1)Nc1ccc(F)cc1F
  x, 105.4, 88.4, 81.9
CCN(CC)CCNC(=O)CSc1nc2nc(C)c(Cc3ccccc3)c(C)n2n1
  -12.5, 103.9, 89.5, 91.9
COc1ccccc1/C=C/C1C(C(=O)OCC(C)C)=C(C)N=C2SCCC(=O)N21 (centres undefined)
  x, 98.6, 95.0, 78.8
Cc1onc(-c2ccccc2Cl)c1-c1nnnn1-c1ccccc1
  -4.0, 107.5, 103.4, 108.9
O=C(Cn1cc(C(F)(F)F)cc(Cl)c1=O)Nc1ncccn1
  -12.7, x, 94.1, 94.7
Cc1ccc(Nc2nc3nonc3nc2Nc2cccc(C(F)(F)F)c2)cc1Cl
  -25.7, 101.9, 21.2, 2.1
O=C(Cn1c(=O)nc(-c2ccccc2)c2ccccc21)Nc1ccc(Cl)cc1F
  -5.9, 103.7, 94.0, 83.5
CCOC(=O)c1c(C)oc2c1c(CN1CC(C)OC(C)C1)c(O)c1ccccc12 (centres undefined)
  -27.0, 103.3, 82.4, 75.3
O=C(c1ccc(Cl)cc1)N1CCC(c2nc(-c3ccc(F)cc3)no2)CC1
  13.0, 100.2, 89.7, 77.3
Cn1cc(C#N)c2ccccc21
  -8.2, x, 104.7, 98.1
O=C(c1ccc2c(c1)OCO2)N1CCCCCCC1
  -14.6, x, 94.0, 95.9
CCOc1ccc(S(=O)(=O)N(CC(=O)Nc2ccc(OC)cc2OC)c2ccccc2)cc1
  19.4, 102.2, 90.4, 94.4
CCc1ccc(-n2nnc(S(=O)(=O)c3ccc(CC)cc3)c2N)cc1
  -6.7, 106.4, 107.9, 95.7
Cc1ccc2nc(Nc3cccc(O)c3)c3nncn3c2c1
  1.1, 113.9, 109.9, 82.6
COc1cccc(C(=O)Nc2nc(-c3ccc(Br)cc3)ns2)c1
  -11.1, 104.9, 93.2, 94.0
Cc1cc(S(=O)(=O)N2CCC(NC(=O)Cc3ccccc3)CC2)c(Cl)cc1Cl
  -30.9, 102.5, 99.7, 88.2
COc1ccc(CN2C(=O)C(O)(CC(=O)c3ccc4c(c3)OCO4)c3ccccc32)cc1OC (centres undefined)
  -15.4, 107.1, 94.1, 96.1
CCC(=O)N1CCc2cc(Br)cc(S(=O)(=O)CCC(=O)Nc3ccc(Cl)cc3)c21
  -17.8, 104.0, 91.9, 89.6
Cc1c(C(=O)NC2CCCCC2)sc2nc3n(c(=O)c12)CCCCC3
  -11.3, 101.2, x, x
O=C(NCc1cccnc1)c1ccc(CSCc2cccc(F)c2)o1
  -0.9, 104.8, 105.5, 69.8
Cc1cc(Cl)ccc1NC(=O)CCn1nc(C)c2c(C)n(-c3ccccc3)nc2c1=O
  x, 99.6, 89.6, 93.0
COc1ccc(-c2cc(C(=O)Nc3sc4c(c3C(N)=O)CCC(C)C4)no2)cc1 (centres undefined)
  22.0, 108.1, 97.1, 105.9
Cc1ccn2c(=O)cc(CSc3nnc(-c4cccs4)n3C3CC3)nc2c1
  -3.1, x, 99.2, 90.4
COc1ccc(C(=O)OCc2nnc(-c3ccccc3)o2)cc1S(=O)(=O)Nc1ccc(C)cc1
  -8.9, x, 94.3, 94.2
Cn1c(SCc2cc(=O)[nH]c(C(C)(C)C)n2)nnc1C(F)(F)F
  4.6, 99.1, 95.5, 103.4
O=C(Cn1ncc2c3ccccc3n(Cc3ccccc3F)c2c1=O)NC1CC1
  -8.8, 103.5, 96.4, 95.5
CN(C(=O)CSc1nnc(-c2ccc(Cl)cc2)o1)C1CCCCC1
  -13.1, 106.2, x, x
CCOC(=O)c1ccc(NC(=O)Cn2ncc3ccccc32)cc1
  -24.6, 99.3, 78.7, 84.3
Cc1cc2ccccn2c1C(=O)c1ccco1
  -53.5, x, 81.3, 95.8
O=C(Nc1ccc(C(F)(F)F)cc1)C1CCCN(S(=O)(=O)c2cccc3cccnc23)C1 (centres undefined)
  0.3, 107.1, 110.7, 86.3
COc1ccc(CC(=O)Nc2nccs2)cc1OC
  -40.1, x, 95.7, 82.1
O=C(C1CCCCC1)N1CCCN(c2ccc(=O)n(-c3ccccc3)n2)CC1
  -35.0, 97.7, x, x
CCOc1ccc(-n2nnc(-c3nc(-c4cccc(OC)c4)cs3)c2N)cc1
  -3.6, 114.2, x, x
O=C(Nc1ccc2c(c1)OCCO2)c1ccc2nccnc2c1
  -66.6, 105.0, 110.5, 77.1
Cc1ccc(C)n1-c1ccc(NC(=O)c2ccccc2)cc1
  -33.3, 107.6, 109.0, 71.6
CC(C)c1cc(-c2nnc3sc(COc4ccc(Cl)cc4)nn23)n[nH]1
  -7.8, 106.5, x, x
CCOC(=O)N1CCN(C(=O)c2ccc(NS(=O)(=O)c3ccccc3)cc2)CC1
  -2.3, 101.3, 92.1, 101.6
